Compound activity: PubChem BioAssay, Broad Institute
Vaccinia inh = blocks a specific stage of Vaccinia orthopoxvirus infection, primary screen, cell-based, single point; Vaccinia-infected cells, mCherry/Venus stage reporter fluorescence; hits give low values; some inactives read as strong as hits; activity change (mCherry), % (concentration not given with the values); 89,000 compounds, 0.01% hits; AID 1053133, 2014;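 active = mCherry past -33% and 40 or more points under the early reporter, replicates agreeing; inconclusive = past -33% without that gap or agreement; tested in A549 cells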;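 note: scaled between vehicle wells and reference inhibitor wells; 23 nL library stock went into each well; one replicate is shown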
Vaccinia inh Venus = further read-out of Vaccinia inh, marked with its call; activity change (Venus), %; measured here: Venus reporter, other viral stage;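 negative = less Venus signal; first of two replicates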
The depositor's hits bear a star; ? = inconclusive; / = not tested or not shown; & = joins results of further samples. The list is partial, so the mix of outcomes need not match the whole.

SMILES	Vaccinia inh	Vaccinia inh Venus
C[C@@H]1CN([C@H](C)CO)C(=O)c2cc(NC(=O)NC3CCCCC3)ccc2O[C@@H](C)CCCCO[C@H]1CN(C)S(C)(=O)=O	9.2	4.4
COc1cccc(S(=O)(=O)N[C@@H]2CC[C@@H](CCN)O[C@H]2CO)c1	1.2	6.1
Cc1noc(C)c1NC(=O)N[C@@H]1CC[C@@H](CCNC(=O)C2CC2)O[C@@H]1CO	-0.7	0.1
COc1cccc(NC(=O)N2C[C@H](O)COC[C@@H]3O[C@H](CC(=O)NC4CCCC4)CC[C@H]32)c1	10.6	3.6
CO[C@@H]1CN(C)C(=O)c2cc(NS(=O)(=O)c3cccc(Cl)c3)ccc2OC[C@@H](C)NC[C@H]1C	5.6	4.4
CCCNC(=O)C[C@@H]1CC[C@@H]2[C@H](COC[C@H](O)CN2C(=O)c2cccnc2)O1	5.8	4.2
C[C@@H]1CN([C@H](C)CO)C(=O)c2cc(NC(=O)Nc3ccc(C(F)(F)F)cc3)ccc2O[C@@H](C)CCCCO[C@@H]1CN(C)CC1CCCCC1	15.6	6.4
COc1ccc(C#Cc2ccc([C@@H]3[C@H](CO)N4CCCCN(C(=O)Cc5ccccc5)C[C@@H]34)cc2)cc1	?	/

Additional entries follow:
SMILES	Vaccinia inh	Vaccinia inh Venus
C[C@H](CO)N1C[C@H](C)[C@@H](CN(C)C)Oc2ccc(NS(=O)(=O)c3ccc(F)cc3)cc2C1=O	-1.9	-5.9
C[C@@H]1CCCCO[C@H](CN(C)C(=O)CCCN(C)C)[C@@H](C)CN([C@H](C)CO)C(=O)c2cc(NC(=O)CCC(F)(F)F)ccc2O1	1.4	-2.7
CNC[C@H]1Oc2c(NS(=O)(=O)c3ccc(OC)cc3)cccc2C(=O)N([C@H](C)CO)C[C@H]1C	10.0	12.7
COc1cccc(C(=O)Nc2ccc3c(c2)C(=O)N(C)[C@@H]2CC[C@@H](CC(=O)NCc4ccccc4F)O[C@@H]2CO3)c1	-6.3	-6.6
N#C[C@H]1[C@@H](c2ccccc2C2=CCCCC2)[C@H](CO)N1S(=O)(=O)c1ccccc1	17.0	14.6
CCN(C[C@H]1N[C@@H](CO)[C@H]1c1ccccc1)C(=O)c1ccccc1	-6.4	-2.9
C[C@@H]1CCCCO[C@H](CN(C)Cc2ccc(C(=O)O)cc2)[C@H](C)CN([C@@H](C)CO)C(=O)c2cc(NC(=O)Nc3ccccc3)ccc2O1	13.3	8.7
O=C(N[C@@H]1CC[C@H](CCNC(=O)C2CCCC2)O[C@@H]1CO)c1ccccn1	7.6	14.1

More records.
SMILES	Vaccinia inh	Vaccinia inh Venus
C[C@H](CO)N1C[C@H](C)[C@@H](CN(C)Cc2cncnc2)Oc2cc(-c3cccnc3)ccc2S1(=O)=O	16.3	6.2
CN1c2ccc(-c3cccc(F)c3)cc2[C@H]2[C@H](CCN2S(=O)(=O)c2cccc(F)c2)[C@@H]1CO	-29.5	-17.0
CC(C)C#Cc1cnc2c(c1)C(=O)N([C@@H](C)CO)C[C@@H](C)[C@H](CN(C)C(=O)c1cccc(F)c1)O2	-9.0	-12.1
O=C(Nc1ccccc1F)N1C[C@H]2[C@@H](c3ccccc31)[C@H](CO)N2C(=O)C1CCCCC1	20.0	11.9
Cc1noc(C)c1NC(=O)N[C@@H]1C=C[C@@H](CC(=O)NCc2ccc(Cl)c(Cl)c2)O[C@@H]1CO	-5.0	-0.7
CCCN1[C@H](C(=O)N2CCOCC2)[C@@H](CO)[C@@H]2Cn3c(ccc(-c4ccncc4)c3=O)[C@@H]21	6.0	6.5
C[C@H](CO)N1C[C@H](C)[C@H](CN(C)S(=O)(=O)c2cn(C)cn2)Oc2ncc(-c3ccccc3)cc2C1=O	11.4	1.4
CC(C)C#Cc1ccc2c(c1)O[C@H](CN(C)C)[C@H](C)CN([C@@H](C)CO)S2(=O)=O	-1.9	-8.2

New compounds follow
SMILES	Vaccinia inh	Vaccinia inh Venus
Cc1ccc(S(=O)(=O)Nc2ccc3c(c2)C(=O)N([C@@H](C)CO)C[C@H](C)[C@@H](CN(C)S(C)(=O)=O)O3)cc1	15.6	12.1
C[C@@H]1CN([C@@H](C)CO)C(=O)Cc2cc(NC(=O)Cc3cn(C)c4ccccc34)ccc2O[C@@H]1CN(C)S(C)(=O)=O	14.7	11.5
C/C=C/c1ccc(C2[C@@H]3CN(C(=O)Cc4ccccc4)C[C@H]2N3)cc1 (stereo partly drawn)	?	-10.6
CO[C@@H]1CC[C@H]2CCN(C)C(=O)CCCN(C)C(=O)c3cccc(C#N)c3OC[C@@H]1O2	17.6	17.4
CCC(=O)N(C)C[C@@H]1Oc2cc(C#CC3CC3)ccc2S(=O)(=O)N([C@@H](C)CO)C[C@@H]1C	9.9	0.7
COc1ccc2c3c(n(C)c2c1)[C@H](CO)N(C)CC31CN(C(=O)NC(C)C)C1	-5.4	-5.9
CCCC(=O)N1CCC2(CC1)CN(C(=O)Nc1cccc(F)c1)[C@@H](CO)c1c2c2ccc(OC)cc2n1C	?	/
Cc1ccc(S(=O)(=O)Nc2ccc3c(c2)C(=O)N([C@H](C)CO)C[C@@H](C)[C@H](CN(C)C(=O)C2CCCCC2)OCCCC[C@@H](C)O3)cc1	?	/

Continued:
SMILES	Vaccinia inh	Vaccinia inh Venus
COc1ccc(S(=O)(=O)N(C)C[C@H]2Oc3ncc(/C=C/c4ccccc4)cc3C(=O)N([C@@H](C)CO)C[C@@H]2C)cc1	?	/
C[C@@H]1CN([C@@H](C)CO)C(=O)c2c(c3ccccc3n2C)-c2ccccc2CO[C@@H]1CN(C)S(=O)(=O)c1ccc(C(F)(F)F)cc1	?	/
CNC[C@H]1Oc2ccc(NS(=O)(=O)c3ccc(C)cc3)cc2CC(=O)N([C@H](C)CO)C[C@@H]1C	9.3	4.0
C[C@@H]1CN([C@H](C)CO)C(=O)c2cc(NC(=O)c3ccncc3)ccc2O[C@@H](C)CCCCO[C@@H]1CN(C)Cc1ccccc1	0.2	-14.3
C[C@H](NC(=O)C[C@H]1C[C@H]2c3cc(NC(=O)CC4CC4)ccc3O[C@H]2[C@@H](CO)O1)c1ccccc1	4.1	-4.7
CCCc1cn(CC[C@H]2CC[C@@H](NC(=O)Nc3ccc4c(c3)OCO4)[C@@H](CO)O2)nn1	7.9	10.8
CCC(=O)N[C@@H]1CC[C@H](CC(=O)NCC2CC2)O[C@H]1CO	3.9	3.4
COc1ccc2c3c([nH]c2c1)[C@H](CO)N(C(=O)CN(C)C)CC31CN(C(=O)c2ccncc2)C1	14.1	8.4

(further entries)
SMILES	Vaccinia inh	Vaccinia inh Venus
Cc1ccc(S(=O)(=O)N(C)C[C@H]2Oc3ccc(NC(=O)Cc4ccccc4)cc3C(=O)N([C@H](C)CO)C[C@@H]2C)cc1	-16.1	-6.5
COc1ccc(S(=O)(=O)Nc2ccc3c(c2)C(=O)N([C@@H](C)CO)C[C@@H](C)[C@H](CN(C)Cc2ccc(C(F)(F)F)cc2)O3)cc1	?	/
COc1cccc(C#Cc2ccc([C@H]3[C@@H](CO)N4C(=O)CN(S(=O)(=O)c5ccccc5C)C[C@H]34)cc2)c1	-15.0	-20.0
COc1ccc(-c2cn(CC[C@@H]3CC[C@@H](NC(=O)CCN4CCCCC4)[C@H](CO)O3)nn2)cc1	-1.1	9.8
Cc1cccc(S(=O)(=O)N(C)C[C@H]2OCc3ccccc3-c3c(n(C)c4ccccc34)C(=O)N([C@H](C)CO)C[C@H]2C)c1	?	/
CS(=O)(=O)N1[C@H](C#N)[C@@H](c2ccc(C#CC3CC3)cc2)[C@@H]1CO	12.1	11.8
C[C@H]1CN([C@@H](C)CO)C(=O)Cc2cc(NC(=O)Nc3ccccc3)ccc2O[C@H]1CN(C)S(C)(=O)=O	4.7	3.5
O=C(c1ccccc1)N1CC(=O)N2[C@H](C1)[C@@H](c1ccc(C#Cc3ccccc3)cc1)[C@@H]2CO	-21.9	-15.7

More entries follow.
SMILES	Vaccinia inh	Vaccinia inh Venus
CN1CCN(C(=O)C[C@H]2C[C@H]3c4cc(NC(=O)NC5CCCCC5)ccc4O[C@H]3[C@H](CO)O2)CC1	5.2	2.4
CN1CCN(C(=O)C[C@@H]2CC[C@@H]3[C@@H](COc4ccc(NC(=O)C5CCOCC5)cc4C(=O)N3C)O2)CC1	3.3	5.7
COc1ccc2c3c(n(C)c2c1)[C@H](CO)N(Cc1nccs1)CC31CN(C(=O)CN(C)C)C1	15.7	5.3
CC(C)CC#Cc1cnc2c(c1)C(=O)N([C@H](C)CO)C[C@H](C)[C@H](CN(C)Cc1ccccn1)O2	-7.4	-11.2
Cc1ccc(S(=O)(=O)N(C)C[C@H]2Oc3cc(C#Cc4ccccc4)ccc3S(=O)(=O)N([C@H](C)CO)C[C@@H]2C)cc1	-21.6&-22.1	-22.4&-21.6
C[C@H](CO)N1C[C@H](C)[C@H](CN(C)CC2CCCCC2)Oc2ccc(NS(=O)(=O)c3ccc(Cl)cc3)cc2CC1=O	?	/
O=C([C@@H]1[C@@H](CO)[C@@H]2Cn3c(ccc(-c4ccccc4F)c3=O)[C@@H]2N1CC1CC1)N1CCCCC1	21.6	12.4
C[C@@H]1CN([C@@H](C)CO)C(=O)c2cc(NC(=O)CCCCCC(=O)Nc3ccccc3N)ccc2O[C@@H](C)CCCCO[C@@H]1CN(C)C(=O)Nc1ccc(C(F)(F)F)cc1	27.6	13.2

(listing goes on)
SMILES	Vaccinia inh	Vaccinia inh Venus
CO[C@@H]1CN(C)C(=O)c2ccc(NC(=O)C3CCC3)cc2OC[C@H](C)N(C)C[C@H]1C	12.9	7.9
COc1ccccc1-c1cn(CC[C@H]2CC[C@H](NC(=O)Cc3ccccn3)[C@@H](CO)O2)nn1	3.3	2.1
O=C([C@H]1N[C@H]2c3ccc(-c4ccccc4F)c(=O)n3C[C@H]2[C@@H]1CO)N1CCc2ccccc2C1	-3.0	-1.3
C[C@H](CO)N1C[C@H](C)[C@H](CN(C)C(=O)C2CCCCC2)OCCCC[C@H](C)Oc2ccc(NC(=O)NC3CCCCC3)cc2C1=O	-11.0	-6.0
C[C@H]1CN([C@@H](C)CO)C(=O)c2cc(NS(C)(=O)=O)ccc2O[C@H]1CN(C)S(=O)(=O)c1cccs1	2.6	-3.6
COc1cccc(NC(=O)N[C@H]2CC[C@H](CC(=O)N3CCOCC3)O[C@@H]2CO)c1	14.5	9.8
Cc1ccc(S(=O)(=O)N[C@H]2C=C[C@H](CC(=O)NCCCN(C)C)O[C@@H]2CO)cc1	2.5	6.9
CCCC#Cc1ccc2c(c1)O[C@@H](CN(C)Cc1ccncc1)[C@H](C)CN([C@@H](C)CO)S2(=O)=O	?	/
